D2 ag: Beta-Arrestin HTS for Positive Allosteric Modulators of the Human D2 Dopamine Receptor: Agonists. D(2) dopamine receptor (Homo sapiens), P14416. DiscoveRx PathHunter D2 beta-arrestin, luminescence, 90 min; 100% = 57 uM dopamine signal. activation, % (no concentration beside the values). hit rate 0.084% among 360,000. AID 624465, 2012; in the data active = activation above about 40%; inconclusive = about 15% to 40%; inactive = below about 15%; note: compound concentration not given in the record; the text of the record calls up to 30% inactive
Target sequence (P14416 whole entry, looked up): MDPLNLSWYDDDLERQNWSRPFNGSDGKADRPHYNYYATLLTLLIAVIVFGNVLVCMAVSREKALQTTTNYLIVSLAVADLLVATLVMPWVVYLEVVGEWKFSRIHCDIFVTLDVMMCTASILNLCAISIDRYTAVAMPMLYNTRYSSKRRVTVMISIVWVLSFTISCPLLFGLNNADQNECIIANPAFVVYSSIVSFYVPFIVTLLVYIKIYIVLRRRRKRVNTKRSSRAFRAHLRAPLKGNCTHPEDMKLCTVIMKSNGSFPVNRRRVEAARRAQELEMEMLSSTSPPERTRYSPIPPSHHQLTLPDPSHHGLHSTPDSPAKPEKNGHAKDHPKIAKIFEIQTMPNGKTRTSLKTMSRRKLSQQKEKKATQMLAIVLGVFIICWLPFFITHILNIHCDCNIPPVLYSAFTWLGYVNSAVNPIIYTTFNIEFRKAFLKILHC
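DiscoveRx PathHunter D2 beta-arrestin cells (2,100/well) attached overnight, then compound-stimulated 90 min at 37 C in HBSS/10 mM HEPES/0.1% Tween-20 buffer; beta-galactosidase complementation read by luminescence after 1 h at ambient temperature. Dopamine 57 uM final (EC100) as control.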
PINK1 expr mod: A Quantitative High throughput Screen to Identify Chemical Modulators of PINK1 Expression. AID 624263, 2012. hit rate 0.2% among 410,000. PINK1 immunofluorescence, high-content cytometry, 24 h. Potency, µM (series often up to 76.6 µM), for inactives: top-dose activation (PINK1 increase), most hits filed as activators; active = well fitted activation curve with a large enough effect; inconclusive = small, poorly fitted or top-dose-only effect; inactive = flat fitted curve, though single readings scatter; cell line not stated here;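 note: potency is the fitted concentration of half-maximal effect; % of control where 0% means no effect; nearly all actives have a fitted effect of over 65% in size; a mitochondrial uncoupler was the plate control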
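Stable cell line, 250 cells/well, 12 h attachment; compounds pinned at 5 concentrations, 24 h; CCCP control. Fixed with nuclear dye, primary antibodies 12 h at 10 degrees C, secondary plus cell stain; laser-scanning cytometer read.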
TRPML1 blocker: qHTS for Inhibitors of the Human Mucolipin Transient Receptor Potential 1 (TRPML1); TRPML1-inducible cells, Ca2+ dye fluorescence, FDSS; stronger effect = lower value; inhibition of EC80 agonist-evoked calcium signal; activity change, negative = inhibition, % (no concentration beside the values); hit rate 0.02% among 390,000; AID 624415, 2012; in the data active means activity change below about -50%; inconclusive means about -30% to -50%; inactive means above about -30%;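 note: stimulus is agonist 54-4 at its EC80 concentration; % is set by controls: 0 for no effect and ±100 for the full control effect; compound concentration not given in the record; the text of the record puts the active cut at -80%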
Target sequence (Q9GZU1 whole entry, looked up): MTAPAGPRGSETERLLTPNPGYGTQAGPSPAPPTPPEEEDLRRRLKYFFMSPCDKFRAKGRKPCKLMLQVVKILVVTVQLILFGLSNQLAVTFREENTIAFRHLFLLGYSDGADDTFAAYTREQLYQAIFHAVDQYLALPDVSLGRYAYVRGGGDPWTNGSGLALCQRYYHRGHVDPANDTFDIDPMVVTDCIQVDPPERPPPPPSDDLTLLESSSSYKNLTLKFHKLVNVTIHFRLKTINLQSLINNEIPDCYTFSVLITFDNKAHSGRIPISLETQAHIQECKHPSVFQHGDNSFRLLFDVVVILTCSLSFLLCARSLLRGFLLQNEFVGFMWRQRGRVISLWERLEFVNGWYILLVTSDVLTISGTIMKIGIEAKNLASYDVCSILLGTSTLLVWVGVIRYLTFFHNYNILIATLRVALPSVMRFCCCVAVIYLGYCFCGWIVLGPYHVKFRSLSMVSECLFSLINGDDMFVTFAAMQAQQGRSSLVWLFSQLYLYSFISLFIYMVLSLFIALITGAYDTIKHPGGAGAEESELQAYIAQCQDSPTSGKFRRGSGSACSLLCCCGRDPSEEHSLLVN
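Calcium fluorescence in TRPML1-DL cells induced overnight with Tet: a 110 s read after compound pin addition, then a 110 s antagonist read after challenge with 54-4 at 4 uM final (EC80).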
Six1-Eya2 blk: qHTS Assay for Inhibitors of the Six1/Eya2 Interaction | Homeobox protein SIX1 (Homo sapiens) + Protein phosphatase EYA2 (Homo sapiens), … | AlphaScreen GST-Six1/His-Eya2 binding, biochemical; stronger effect = lower value; control for the full effect not named in the record | activity change, % (concentration not given with the values) | hit rate 0.56% among 360,000; in the data active = activity change below about -65%; inconclusive = about -30% to -65%; inactive = above about -30%; note: % is set by controls: 0 for no effect and ±100 for the full control effect
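AlphaScreen with GST-Six1 and His-Eya2 (5X mix: 250 nM and 500 nM), glutathione donor and nickel acceptor beads; buffer 50 mM Tris pH 8.0, 300 mM NaCl, 1 mM TCEP; 1 h at 37 C in the dark.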
TRPML1 agonist: qHTS for Agonists of the Human Mucolipin Transient Receptor Potential 1 (TRPML1). Mucolipin-1 (Homo sapiens), Q9GZU1. AID 624414, 2012. activation, % (test concentration not listed). hit rate 0.12% among 410,000. TRPML1-expressing cells, Ca2+ dye fluorescence, FDSS; host cell line not named in the record; reference of the full effect not given here; in the data active = activation above about 50%; inconclusive = about 30% to 50%; inactive = below about 30%; note: 0% is about no effect; the text of the record puts the active cut at 80%
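Tet-induced TRPML1-DL cells, 1,500 per well, cultured overnight, were loaded with a no-wash Ca2+ dye for 45–90 min. Calcium fluorescence was recorded on the FDSS for 110 s after compound addition, before the EC80 agonist (4 uM 54-4) was added.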
CtBP-E1A blk: qHTS Assay for Inhibitors of the CtBP/E1A Interaction; CtBP / adenovirus E1A interaction (AlphaScreen); AlphaScreen GST-E1A/His-CtBP binding, 1536-well; stronger effect = lower value; control for the full effect not named in the record; activity change, % (concentration not given with the values); hit rate 0.49% among 340,000; AID 651724, 2012; in the data active means activity change below about -65%; inconclusive means about -30% to -65%; inactive means above about -30%; note: % is set by controls: 0 for no effect and ±100 for the full control effect
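AlphaScreen with 125 nM GST-E1A and 125 nM His-CtBP (5X stocks) in Tris pH 8.0, 300 mM NaCl, BSA, Tween 20, TCEP. Compounds preincubated 2 h at 37 deg C, then glutathione donor/nickel acceptor beads added for 1 h at 37 deg C in dark.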
* hit, by the source's call; ? = inconclusive; · = not tested or not shown; [ ] = another dose, or the depositor's remark.

No.	mol	D2 ag	PINK1 expr mod	TRPML1 blocker	Six1-Eya2 blk	TRPML1 agonist	CtBP-E1A blk
1	CC1(C(=O)NS(=O)(=O)c2ccccc2)CCN1C(=O)C1(c2ccc(Cl)cc2)CCC1 (configuration not stated)	-3.9	-0.2%	·	3	-0.6	0
2	COC(=O)c1ccc(C(=O)NC2CCCN(Cc3ccc(Cl)cc3)C2)nc1 (configuration not stated)	-5.5	0.8%	14	-4	1.0	0
3	CC(C)CC(=O)c1c[nH]c(C(=O)NCCc2ccccn2)c1	-0.3	-0.9%	4	8	-0.2	-6
4	CN1CCN(C(=O)C2=C[C@@H](c3coc4ccccc4c3=O)C[C@@H](OCCCCO)O2)CC1	-1.6	0.4%	-1	12	-0.3	-11
5	O=C(NCc1ccco1)c1sc2cc(Cl)ccc2c1Cl	-2.3	-6.5%[38.3 µM]	-6	-6	-0.1	5
6	O=C(Nc1ccc(Cl)c(S(=O)(=O)N2CCOCC2)c1)c1ccc(Cl)nc1	-1.1	5.4%	-9	-25	0.5	-28
7	O=C(CSc1ccccc1)NC1CCCCCC1	-0.6	2.1%	-11	5	-0.6	6
8	O=C(c1ccc2n[nH]nc2c1)N1CCN(c2ccc(C(F)(F)F)cn2)CC1	1.9	0.5%	-2	-1	-0.2	9
9	Cc1cc(C)cc(N2C(=O)CS(=O)(=O)C23C(=O)N(Cc2ccccc2)c2ccccc23)c1 (configuration not stated)	·	-3.5%	-4	·	2.2	·
10	COc1ccc(CN(C)CC(=O)Nc2ccc(Cl)cc2F)c(OC)c1	-1.4	3.2%	·	4	·	1
11	CC1CC(CN)CC(CO)C1 (configuration not stated)	-4.6	-0.2%	-2	7	-0.5	6
12	O=C(CCNc1cccc(Cl)c1)c1cccs1	-1.7	-2.5%[38.3 µM]	-6	16	0.7	2
13	COc1ccc(NC(=O)COC(=O)c2ccc(N3CCCC3=O)cc2)cc1	-2.6	0.8%	1	5	-0.2	-4
14	C1CCCC(N2CCNCC2)CC1	-0.5	1.3%[38.3 µM]	-4	3	0.6	2
15	CCCCP(=O)(CCCC)c1ccccc1C(=O)O	2.1	-3.0%	16	1	-0.4	7
16	CCOc1ccccc1NC(=O)NC1CC2CCCC(C1)N2Cc1nnnn1CCc1ccccc1 (configuration not stated)	-4.3	3.1%	-14	-2	-0.3	0
17	COc1cccc(-c2c(NC(=O)c3ccco3)n(-c3ccc(C)cc3)nc(C)c2=O)c1	-0.2	3.2%[38.3 µM]	-13	9	0.0	-2
18	N#Cc1ccc(C(=O)N2CCCCC2c2cc(C(=O)Nc3ccccc3Cl)no2)cc1 (configuration not stated)	-5.5	2.6%	·	-1	-0.3	2
19	COC(=O)c1ccc(S(=O)(=O)c2ccc(Cl)cc2)c(N)c1	-4.5	10.0%	·	19	·	18
20	COc1ccc(CC(=O)OCC(=O)Nc2cccnc2Cl)cc1OC	-3.1	1.6%	-13	-11	-1.0	1
21	COc1ccccc1-c1coc2c(CN3CCN(C)CC3)c(O)ccc2c1=O	-4.0	-2.2%	0	-2	1.9	1
22	O=C(Nc1ncccc1O)c1ccc2c(c1)OCO2	-1.6	3.4%	1	6	-0.6	0
23	O=C(Cn1nc(C(F)(F)F)c2c1CCCC2)Nc1cccc(Cl)c1	·	13%	-8	·	-0.5	·
24	Cc1ccc(C(=O)CSc2nc3cc(C(=O)NC4CCCC4)ccc3c(=O)n2CC2CCCO2)cc1 (configuration not stated)	·	-0.9%	7	·	-0.6	·
25	COc1cccc(Cn2c(=O)n(CC3CCC(C(=O)N4CCCCC4)CC3)c(=O)c3sccc32)c1 (configuration not stated)	·	-0.8%	4	·	1.4	·
26	Cc1ccccc1NC(=O)N1CCC(C(=O)c2ccc(F)cc2)CC1	-6.0	0.6%	2	3	-0.2	-6
27	Cc1ccc([C@@H]2[C@@H]3C(=O)N(c4ccccc4)C(=O)[C@@H]3[C@]3(C)C(=O)N(Cc4ccccn4)CC(=O)N23)o1	-4.9	1.3%	-15	4	0.6	0
28	Cc1ccc(S(=O)(=O)N(C)CCCC(=O)n2nc(C)cc2C)cc1	-4.4	-1.1%	-2	0	0.1	1
29	Cc1nn(-c2ccccc2)c(OC(=O)c2cccc(Br)c2)c1S(=O)(=O)c1ccccc1	·	0.4%	-16	·	-1.1	·
30	CC(C)(C)NC(=O)Cn1cc(S(=O)(=O)Cc2ccc(F)cc2)c2ccccc21	·	0.2%	-20	·	-0.4	·

Look-ups from the list.
TRPML1 agonist result of cpd 25 stands at 1.4
TRPML1 blocker result of cpd 12 stands at -6
PINK1 expr mod result of cpd 29 stands at 0.4%
CtBP-E1A blk result of cpd 8 stands at 9

Single records (already shown). Screens in order: D2 ag | PINK1 expr mod | TRPML1 blocker | Six1-Eya2 blk | TRPML1 agonist | CtBP-E1A blk
Profile of CC(C)CC(=O)c1c[nH]c(C(=O)NCCc2ccccn2)c1 : -0.3 | -0.9% | 4 | 8 | -0.2 | -6
Profile of O=C(CSc1ccccc1)NC1CCCCCC1 : -0.6 | 2.1% | -11 | 5 | -0.6 | 6
Profile of COc1ccc(CC(=O)OCC(=O)Nc2cccnc2Cl)cc1OC : -3.1 | 1.6% | -13 | -11 | -1.0 | 1

The listing picks up, repeating the 2 entries before the break.
No.	mol	D2 ag	PINK1 expr mod	TRPML1 blocker	Six1-Eya2 blk	TRPML1 agonist	CtBP-E1A blk
29	Cc1nn(-c2ccccc2)c(OC(=O)c2cccc(Br)c2)c1S(=O)(=O)c1ccccc1	·	0.4%	-16	·	-1.1	·
30	CC(C)(C)NC(=O)Cn1cc(S(=O)(=O)Cc2ccc(F)cc2)c2ccccc21	·	0.2%	-20	·	-0.4	·
31	COC(=O)c1ccccc1S(=O)(=O)NC(=O)c1ccccc1	2.4	-2.5%	-11	10	-0.6	5
32	CC1CCC2(CC1)N=C(c1ccccc1)C(=O)N2CC(=O)Nc1ccc(F)c(Cl)c1 (configuration not stated)	·	?	-18	·	1.2	·
33	COCCNC(=O)C(c1ccco1)N(C(=O)Cn1nnc2ccccc21)c1cc(C)ccc1C (configuration not stated)	-5.1	0.0%	-16	-2	0.5	6
34	COc1cccc(-c2nc(S(=O)(=O)c3ccc(C)cc3)c(N3CCCCC3)o2)c1	·	1.1%	21	·	0.5	·
35	O=C(CNC(=O)c1ccco1)Nc1ccc(OC(F)F)cc1	0.7	0.0%	1	-5	0.0	-11
36	COc1ccc(N=C(C)C2=C(O)COC2=O)cc1	-1.4	-4.1%	-21	1	-0.4	7
37	CN1CCN(Cc2c(C(=O)N3CCc4ccccc4C3)nc3ccc(Cl)cn23)CC1	-4.3	-1.2%	-5	7	0.1	1
38	CC(=O)N1CCN(c2ccc(NC(=O)c3ccc(OCc4ccccc4)cc3)cc2)CC1	1.0	0.2%	23	-3	-0.2	·
39	Cc1ccc(Cn2ccc(NC(=O)c3cc(-c4ccc(Cl)cc4)on3)n2)cc1	-0.9	3.9%[38.3 µM]	4	2	1.1	0
40	CCn1c(=O)cc(SCC(=O)N2CCN(C(=O)c3ccco3)CC2)c2ccccc21	-0.2	3.4%[38.3 µM]	4	-7	0.0	-11
41	CC1CCCC2(C1)NC(=S)N(c1ccccc1)N2 (configuration not stated)	-11	1.1%	1	3	0.0	-8
42	O=C(CSc1nc(-c2ccco2)cc(C(F)(F)F)n1)Nc1ccccc1C(F)(F)F	2.8	·	5	0	5.8	6
43	Cc1c(NC(=O)/C=C/c2cccs2)c(=O)n(-c2ccccc2)n1C	-2.9	0.4%	-2	1	-0.9	5
44	CC(C)C1O/C(=N/C(=O)Nc2ccc(Cl)c(Cl)c2)NC1=O (configuration not stated)	-2.1	?	1	5	0.5	-1
45	Cc1ccc(OCC(O)CN2C(=O)NC(C)(C)C2=O)cc1 (configuration not stated)	-2.4	1.3%	0	-2	-0.9	1
46	COc1ccc(Nc2cc(C)nc3ccc(OC)cc23)cc1	1.9	3.2%	2	-6	-0.2	-16
47	CC(C)(C)c1ccc(O)c(N=Cc2cc(Br)ccc2O)c1	-1.1	-0.8%	19	-1	1.8	·
48	O=C(COC(=O)CSc1ccc(Cl)cc1)NCCc1ccccc1	-4.3	3.3%	-4	21	0.2	0
49	O=C1NCCCCC1NS(=O)(=O)c1cccc2ccccc12 (configuration not stated)	7.8	1.2%	18	4	0.4	7
50	Cc1c(/C=N/NC(=O)C(C)(C)Oc2ccc(Cl)cc2)cnn1C	0.6	13%[38.3 µM]	-13	1	-0.1	3
51	COc1ccc(C(=O)NC2CCCc3ccccc32)c(OC)c1OC (configuration not stated)	-0.1	1.9%	0	5	0.0	-8
52	Cc1ccc(-n2ncc3c(N4CCN(Cc5ccccc5)CC4)ncnc32)cc1C	·	2.4%	11	·	-0.4	·
53	O=C(COC(=O)c1cn(-c2ccccc2)nc1-c1ccccc1)c1cccc([N+](=O)[O-])c1	1.2	1.4%	21	-10	-0.1	0
54	Cc1cc2cc(CCNC(=O)C(=O)c3c[nH]c4ccccc34)c(=O)[nH]c2cc1C	2.6	4.4%	-8	0	-0.6	-8
55	O=C(C1CCN(S(=O)(=O)c2cccs2)CC1)N1CCN(c2cccc(Cl)c2)CC1	·	0.0%	-27	·	0.6	·
56	CCOC(=O)Cc1cc(=O)[nH]c(=O)[nH]1	-1.6	1.9%	7	-1	0.0	6
57	COCCNc1cc(C)nc2c(-c3ccccc3OC)c(C)nn12	-0.7	2.5%	27	-4	-0.9	1
58	CCCC/C(O)=C1\C(=O)CC(C)(C)CC1=Nc1ccccc1OC	2.3	0.6%[38.3 µM]	10	2	1.1	8
59	Cc1ccc(C)c(S(=O)(=O)N2CCCC2CNC(=O)C(=O)NCc2ccccc2C)c1 (configuration not stated)	-5.6	-0.6%	19	1	0.4	2
60	CC(C)(C)c1nc2c(C#N)c(-c3ccc(Cl)cc3)ccn2n1	?	2.5%	68	-7	6.0	-7
61	CC1CCN(CC(=O)N2CCc3ccccc32)CC1	1.8	1.3%	-6	5	-0.7	·
62	Cc1c(C(=O)N2CCc3ccccc32)oc2c1C(=O)CC(C)(C)C2	0.2	0.0%[38.3 µM]	-2	-2	0.0	2
63	CC1(C)N=C(SCc2ccc(F)cc2)c2ccccc2N1	·	2.6%	-3	·	0.1	·
64	COC(=O)[C@@]1(Cc2ccc(F)cc2)[C@H]2c3cc(C(=O)N(C)C)n(Cc4ccc(C)o4)c3C[C@H]2CN1C(=O)c1ccccc1	·	16%	·	-16	0.4	-3

Bioassay records: PubChem, National Center for Advancing Translational Sciences (NCATS)
